HPGD inh: HPGD (human) dehydrogenase inhibition; P15428; purified HPGD, NADH fluorescence kinetic, PGE2 substrate; Potency, µM, without a hit: at the top dose activity change, negative = inhibition, usual class: inhibitors; 150,000 tested, 4.3% active; active = well fitted inhibition curve with a large enough effect (not every such curve was filed as active); inconclusive = small, poorly fitted or top-dose-only effect, or another doubt; inactive = no such curve, though single readings can be large or run the other way;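 also: top concentration of the series not given in the record; plate controls included wells without enzyme; inactives centre near -10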
Target sequence (P15428 whole entry, looked up): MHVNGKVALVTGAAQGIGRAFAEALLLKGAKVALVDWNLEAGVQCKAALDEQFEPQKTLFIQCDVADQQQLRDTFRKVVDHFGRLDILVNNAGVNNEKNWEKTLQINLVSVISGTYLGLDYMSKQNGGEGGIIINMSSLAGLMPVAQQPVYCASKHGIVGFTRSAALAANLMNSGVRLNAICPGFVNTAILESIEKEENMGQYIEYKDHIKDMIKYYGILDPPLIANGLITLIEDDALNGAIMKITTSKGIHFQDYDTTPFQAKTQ
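20 nM HPGD preincubated 15 min at room temperature with compound in 50 mM Tris-HCl pH 8, 0.01% Tween 20. Started with 1 mM NAD+ and 30 uM prostaglandin E2; NADH fluorescence (360/450 nm) read 5 times over 30-s intervals, last minus first.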
Numbers without * were called inactive; ? = inconclusive; & = joins results of further samples; [ ] = remark or other dose. % is scaled to controls: 0 for no effect and ±100 for the full control effect; potency is read from the fitted curve at half-maximal effect.

SMILES	HPGD inh
COc1ccc2[nH]cc(C3=CCNCC3)c2c1	-20%
NNc1ccccc1	-2%
Brc1ccc(CN2CCNCC2)s1	-3%
O=C(CCCCCn1c(=S)[nH]c2ccccc2c1=O)N1CCC2(CC1)OCCO2	-24%
c1cc2ccc3cccc4ccc(c1)c2c34	?
COc1ccc(C(O)c2ccccc2OP(=O)(N(C)C)N(C)C)cc1 (stereo unspecified)	-2%
COC1=C[C@H]2C3=C([C@H]2C1=O)[C@H](NC(C)=O)CCc1cc(OC)c(OC)c(OC)c13	1%
C[C@@H]1C2C[C@@]34COC(=O)C3=CC=C[C@H]4[C@@]13C[C@H](c1ccoc1)O[C@@H]3O2	-13%
O=P(Nc1cccnc1)(Oc1ccccc1Cl)Oc1ccccc1Cl	-6%
O=C1CSC2(CN3CCC2CC3)N1 (stereo unspecified)	-3%
CCN1CCN(Cc2cc(Br)cc(Br)c2O)CC1	-10%
CC1CCCC(NC(=O)COC(=O)Cc2ccccc2)C1C (stereo unspecified)	-20%
COc1cc(CC2C(=O)N(C)C(=O)N(C)C2=O)ccc1OCc1ccccc1	-11%
Cc1ccccc1NC1=NCC(C)S1 (stereo unspecified)	?
O=P(/C(=N/O)N1CCCCC1)(N1CCOCC1)N1CCOCC1	-16%
COc1ccccc1N1CCN(Cc2ccccc2Cl)CC1	-2%
Nc1ccc([N+](=O)[O-])cc1N	-3%
O=C(c1ccc(CS(=O)(=O)c2ccc(Br)cc2)o1)N1CCC2(CC1)OCCO2	-5%
CC1CCC(C(C)C)C(OC(=O)COC(=O)c2ccccc2N)C1 (stereo unspecified)	?
O=P(Nc1ccccc1)(Nc1ccccc1)Oc1ccc(Cl)cc1	5.6µM*
C=CCN1CC[C@]23c4c5ccc(O)c4O[C@H]2C(=O)CC[C@@]3(O)[C@H]1C5	-5%
CCCCn1c(=O)c(C=Nc2ccc(Cl)cc2)c(O)n(Cc2ccco2)c1=O	?
O[C@H]1CCCC[C@H]1N1CCC(c2ccccc2)CC1	-7%&-7%
Nc1nc(=S)c2ncn([C@H]3O[C@@H](CO)[C@@H](O)[C@@H]3O)c2[nH]1	-16%
C=CCOC(=O)c1ccccc1N	-14%
O=c1[nH]c(=S)n(Cc2ccc(F)cc2)c(O)c1C=NCC1CCCO1 (stereo unspecified)	28µM*
COc1ccc2c(CCN)c[nH]c2c1	-16%
Cc1cccn2c(NCC3CCCO3)c(C(C)C)nc12 (stereo unspecified)	?
CCC/C(=N\O)c1c[nH]c2ccccc12	-17%
CCC1CN2CCc3cc(OC)c(OC)cc3C2CC1CC1NCCc2cc(OC)c(OC)cc21 (stereo unspecified)	?
c1csc(CN2CCCC3(CCNCC3)C2)n1	-1%
O=C(Oc1ccccc1)N1CCC[C@@]2(CCN(C(c3ccccc3)c3ccccc3)C2)C1	-10%
CCCOP(=O)(OCCC)C(NC(=O)c1ccccc1)=C(Cl)Cl	-2%
COC(=O)N1CCC2(CCCN(C)C2)CC1	-4%
Cc1nc2ccccc2c(=O)n1-c1cccnc1	-11%
Nc1ccccc1C(=O)OCCc1ccccc1	?
COc1ccc2[nH]c3c(c2c1)CCN=C3C	-15%
CN(C)C1C(=O)C(C(N)=O)=C(O)[C@@]2(O)C(=O)C3=C(O)c4c(O)cccc4[C@@](C)(O)C3[C@H](O)C12 (stereo partly specified)	?
CCN1CCN(c2nc3c(c(=O)[nH]2)CCCC3)CC1	-11%
COC(=O)CCCNC(=O)CN1CC(c2ccccc2)CC1=O (stereo unspecified)	-4%
Clc1ccc(C(OCCN2CCCCC2)c2ccccc2)cc1 (stereo unspecified)	-12%
O=C1C(c2ccccc2)=C(N2CC2)c2ccccc21	-7%
C1CCC(NC2CCCCC2)CC1	-6%&-8%
CCOC(=O)c1c(C)n(C(C)C)c2ccc(OC(=O)c3ccc(N4C(=O)CCC4=O)cc3)cc12	-13%
CCCCOC(=O)c1ccccc1N	-15%
CC1(C)C(O)CC(O)[C@]2(C)C1CC(O)[C@]1(C)C2CC[C@@]2(C)C(c3ccoc3)CC3OC312 (stereo partly specified)	-18%
CC1=CC(=O)C2=C(C)C[C@@H](O)[C@@H]3[C@@H](OC(=O)[C@H]3C)[C@H]12	1%
O=C(NC1CN2CCC1CC2)c1cc(Cl)c([N+](=O)[O-])c2nc[nH]c12 (stereo unspecified)	0%
CN1CCC(O)(c2ccccc2)C2CCCC21 (stereo unspecified)	-4%
COc1ccc(CNC(=O)/C=C/c2ccc3[nH]cc(CCN(C)C)c3c2)cc1	-5%
Cc1ccc(OCC(=O)Nc2ccc(Cl)cc2C(=O)c2ccccc2)cc1	-9%
O=C1NC(=O)C(CCc2ccncc2)(Cc2cccc(Cl)c2Cl)C(=O)N1c1ccc(Br)cc1 (stereo unspecified)	-10%
CC(=NCC1CCCO1)c1c(O)n(Cc2ccccc2)c(=O)[nH]c1=O (stereo unspecified)	?
CC12CN3CCN(CC(C3)C1O)C2 (stereo unspecified)	-4%
COCCCNC(=O)c1c(NC(=O)c2ccco2)n(Cc2ccccc2)c2nc3ccccc3nc12	?
O=[N+]([O-])c1ccccc1-c1ccccc1	-11%
CCOP(=O)(OCC)OCC	-1%
CCNCC1(c2ccc(OC)c(OC)c2)CCCC1	-6%
O=C1C2CCCN2C(c2cccnc2)N1c1ccc(Cl)c(Cl)c1 (stereo unspecified)	-7%
NC(=O)CI	?

Next section.
SMILES	HPGD inh
O=C(Cc1ccccc1)N1CCN(CC2CC=CCC2)CC1 (stereo unspecified)	-8%
CC1OC(NCCc2ccccc2)C(O)C(O)C1O (stereo unspecified)	-13%
O=C(OC1CCN(CCCl)CC1)C(c1ccccc1)c1ccccc1	-11%
Clc1cccc(CN2CCCCC2c2cccnc2)c1 (stereo unspecified)	-16%
COc1ccc(-c2noc(CN3C(=O)c4ccccc4C3=O)n2)cc1	20µM*
CNCCc1cnc[nH]1	-5%
COC(=O)C(C)Oc1cc(C)cc2oc(=O)c3c(c12)CCC3 (stereo unspecified)	?
CCC(=NCc1cccnc1)c1c(O)n(Cc2ccccc2)c(=O)[nH]c1=O	16µM*
COc1cccc(-n2c(CN3CCN(C)CC3)nc3ccc([N+](=O)[O-])cc3c2=O)c1	28µM*
O=C(c1c[nH]cc1-c1ccccc1)c1cccc2ccccc12	-26%
CC[C@@]1(O)C(=O)OCc2c1cc1n(c2=O)Cc2cc3c(NC(=O)CN)cccc3nc2-1	-14%
CC(=O)Nc1ccc2c(c1)CC1(C(=O)N(C)C(=O)N(C)C1=O)C1CCCN21 (stereo unspecified)	-6%
CCCC1C(C#N)=C(N)Oc2c1c(=O)oc1ccccc21 (stereo unspecified)	-5%
O/N=C/c1c[nH]c2ccccc12	7.1µM*
O=C1CC(=O)N(c2ccc(Cl)cc2Cl)C(=O)N1	-10%
CCOC(=O)C(NC(C)=O)C(OC(C)=O)c1cccc(N(CCCl)CCCl)c1 (stereo unspecified)	0%
Cc1cccnc1NC1=NCC(C)S1 (stereo unspecified)	-17%
c1ccc(N2CCCC3(CCNCC3)C2)cc1	-8%
O=C1CN=C(c2ccccc2F)c2cc(Cl)ccc2N1	-16%
Cc1ccc(CS(=O)(=O)Cc2ccc(C(=O)N3CCC4(CC3)OCCO4)o2)cc1	-12%
CCCCC/C=C\C/C=C\C/C=C\CCCCCCC(=O)NCCO	-19%&-7%
c1cncc(C2CC(c3cccs3)n3ncnc3N2)c1 (stereo unspecified)	-15%
CN(C)C1(c2nnnn2-c2ccc(Cl)cc2)CCCCC1	-2%
O=C(O)[C@H]1C2c3ccccc3C(c3ccccc32)[C@@H]1C(=O)NCC1CC1	-6%
C=CCN1CCC23c4c5ccc(O)c4O[C@H]2C(=O)CC[C@@]3(O)C1C5 (stereo partly specified)	-13%
Nn1cnnc1	-7%
CCCCCCCSc1cc(OC)c(CCNC)cc1OC	-7%
O=C1NC(=O)C2(Cc3ccccc3N3CCCC32)C(=O)N1c1ccc(Cl)cc1 (stereo unspecified)	?
CCCC1(CCC)C(=O)NC(=Nc2ccccc2)NC1=O	-8%
CN(C)c1ccc(C(=O)c2ccc(N(C)C)cc2)cc1	?
CC[N+](C)(CC)CCCOC(=O)C(O)(c1ccccc1)C1CCCCC1 (stereo unspecified)	1%
Cc1ccc(C2=NC(C)(C)N3C2C3c2ccc([N+](=O)[O-])cc2)cc1 (stereo unspecified)	-8%
CC(=O)OC1C(=O)[C@]2(C)C(O)CC3OC[C@]3(OC(C)=O)C2[C@@H](OC(=O)c2ccccc2)[C@]2(O)CC(O)C(C)=C1C2(C)C (stereo partly specified)	?
CCC(C)C1(CC)C(=O)NC(=O)N=C1N (stereo unspecified)	-9%
C[C@H]1C[C@@H](C)C(=O)[C@@H]([C@H](O)CC2CC(=O)NC(=O)C2)C1	-9%
CC[C@@]1(c2ccc(N)cc2)CCC(=O)NC1=O	-11%
O=c1c2ccccc2nc(-c2ccccc2)n1-c1nccs1	2%
CCCCN1C(=O)NC(=O)C2(Cc3c(nc4c(C)cccn4c3=O)N3CCc4ccccc4C32)C1=O (stereo unspecified)	?
CC(=O)C1CCC2C3CCC4CC(O)CCC4(C)C3CC(O)C12C (stereo unspecified)	-8%
CCC(C)N1CCN(C(=O)Cc2ccccc2)CC1 (stereo unspecified)	3%
CCOC(=O)CN1C(=O)C2(C(C#N)=C(N)Oc3ccccc32)C(C(=O)OC)=C1C (stereo unspecified)	-3%
N#C/C(=C\c1ccc(O)c(O)c1)C(N)=S	8.9µM*
c1ccc(Cc2nn3c(Cn4cnc5ccccc54)nnc3s2)cc1	7.1µM*
O=C1/C(=C\c2cc3c(cc2Cl)OCO3)N2CCC1CC2	28µM*
O=[N+]([O-])c1c(Cl)c(Cl)cc(Cl)c1Cl	-1%
COc1ccc(C(C)=O)cc1CC(C(=O)c1ccc(C)cc1)N(C)C (stereo unspecified)	-14%
CCCCC/C=C\C/C=C\C/C=C\C/C=C\CCCCOC(CO)CO	-18%
CC1=NN(c2ccccc2)C(=O)C1/C=C1/C(=O)NC(=O)N(c2cccc(C)c2)C1=O (stereo unspecified)	-15%
C[N+]1(C)C2CC[C@H]1CC(OC(=O)[C@@H](CO)c1ccccc1)C2 (stereo partly specified)	-5%
CC(=NCc1cccnc1)c1c(O)n(-c2ccccc2C)c(=O)[nH]c1=O	-8%
COc1cc2c(c(OC)c1OC)-c1ccc(O)c(=O)cc1[C@@H](NC(C)=O)CC2	-14%
CCOc1ccc(C2SCC(=O)Nc3c2c(C)nn3C2CCOC(C)(C)C2)cc1 (stereo unspecified)	1%
Fc1ccc(C2NCCc3[nH]cnc32)cc1 (stereo unspecified)	-12%
COc1cc(C2NCc3ccccc3-n3cccc32)ccc1O (stereo unspecified)	0%
Cc1nc2cc(C(F)(F)F)ccc2n1C1CCN(Cc2nnnn2Cc2ccc3c(c2)OCO3)CC1	-11%
CCOc1c(Cl)cc(CNc2ccc(S(N)(=O)=O)cc2)cc1OC	25µM*
Cc1ccc(-n2c(/C=C/c3ccc4c(c3)OCO4)nc3ccccc3c2=O)cc1	99%[activator]
CCc1ccc(N2C(=O)NC(=O)/C(=C\c3cccn3CCOc3ccc(C(C)C)cc3)C2=O)cc1	-7%
Cn1c(O)c(C=NCCCNC2CCCCC2)c(=O)n(C)c1=O	0%
Cc1ccc(C(C)C)c(OCC(=O)N2CCN(Cc3nc4cc([N+](=O)[O-])ccc4n3C)CC2)c1	-5%

Following part:
SMILES	HPGD inh
Cc1ccc(C2(O)CC(C)N(C)CC2C)cc1 (stereo unspecified)	-7%
O=C(CN1CC=C(c2ccccc2)CC1)NC(=O)NCc1ccco1	-6%
CCOC(=O)c1[nH]c(=O)c2ccccc2c1O	?
C[N+]1(C)CCC(OC(=O)C(c2ccccc2)c2ccccc2)CC1	-13%&-1%
O=C(O)[C@@H]1CCN1	-8%
COc1cc(-n2c(=S)[nH]c3ccccc3c2=O)c(Cl)cc1Cl	78%[activator]
CC(Cc1ccc(OCC(=O)O)cc1)NCC(O)c1cccc(Cl)c1 (stereo unspecified)	-7%
CC1=NOC2(C)Nc3ncnn3C(c3ccccc3)C12 (stereo unspecified)	-3%
Cc1ccc(-c2nc3ccc(Cl)cc3n2OC(=O)N(C)C)cc1	37%[activator]
CC(Cc1ccccc1)NC(=O)Cc1ccc(N(C)C)cc1 (stereo unspecified)	-20%
CC1(C)CN=C(Nc2nc3ccccc3s2)S1	-15%
Cc1cccc(C)c1OP(N)(=O)OCC(F)(F)F (stereo unspecified)	-9%

An excerpt; count on the stated rates, not on these rows.
